Methyltransferases – Primary Screen for Target Class Profiling of Small Molecule Inhibitors of Methyltransferases | calls only at 40 µM | AID 1745853, 2022 | 3.9% of 25,000 active | purified enzyme, MTase-Glo SAH luminescence; stronger effect = lower value; active = -50% or lower on at least one of six enzymes; inconclusive = the cases between; inactive = as a rule above -30% on all six;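 note: enzymes were COMT GAMT GNMT HNMT NNMT and PNMT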
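Each enzyme was reacted with SAM and its substrate, with compounds tested once at 40 uM; SAH formed was read by MTase-Glo luminescence.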
Calls only. % is set by controls: 0 for no effect and ±100 for the full control effect. An excerpt; the hit share may differ from the screen's.

How did Cc1cn2nc(C(=O)N3CCC(C(=O)NCc4ccccn4)CC3)cc2c(=O)[nH]1 do in these assays?
Methyltransferases: inactive

How did O=C(NCCc1ccccc1)c1ccc2c(=O)nc3c(-c4ccc(F)cc4)n[nH]n3c2c1 do in these assays?
Methyltransferases: inactive

How did CC1=C[C@@H](CNS(C)(=O)=O)[C@H](C(C)C)C[C@H]1CC(=O)Nc1ccccn1 do in these assays?
Methyltransferases: inactive

How did CCCN(CCC)C(=O)c1coc(COc2ccc3sc(C)nc3c2)n1 do in these assays?
Methyltransferases: inactive

How did O=C(CCc1nnc2n(Cc3ccccc3Cl)c(=O)c3ccccc3n12)N1CCN(c2ccccn2)CC1 do in these assays?
Methyltransferases: inactive

How did CCOC(=O)c1ccccc1NC(=O)N1Cc2c(sc3c2CCN(C)C3)-n2cccc2C1CC (stereo not drawn) do in these assays?
Methyltransferases: inactive

How did CCCN1C(=O)c2c(C(=O)NCc3ccc(OC(C)C)cc3)ncn2CC1(C)C(=O)NCc1ccc(C)cc1 (stereo not drawn) do in these assays?
Methyltransferases: inactive

How did CC(C)CCn1c(=O)c2ccccc2n2c(=O)n(Cc3c(F)cccc3Cl)nc12 do in these assays?
Methyltransferases: inactive

How did Cc1ccc(CN2C(=O)c3ccccc3CC2(C)C(=O)NCc2ccccc2)cc1 (stereo not drawn) do in these assays?
Methyltransferases: inactive

What do the screens show for `C=C1CCC[C@]2(C)CC[C@@](O)(C(=C)C(=O)O)C[C@@H]12`?
Methyltransferases: inactive

Results for CC1(C(=O)NCc2ccccc2)Cc2ccccc2C(=O)N1Cc1cccc(C(F)(F)F)c1 (stereo not drawn) ?
Methyltransferases: inactive

How did C=C1C(=O)O[C@@H]2/C=C(/C)[C@@H](OC(C)=O)C/C=C(\C)C[C@@H](OC(=O)/C(=C/CO)CO)[C@@H]12 do in these assays?
Methyltransferases: inconclusive

Results for Cc1[nH]c2ccccc2c1CCNCc1ccc(/C=C/C(=O)NO)cc1 ?
Methyltransferases: active

Results for c1ccc(CN2CCC(Cc3ccc(CN4CCCC4)cc3)CC2)nc1 ?
Methyltransferases: inconclusive

What do the screens show for `COC(=O)[C@H]1CN(C(=O)NC(C)C)CCN1C(=O)c1cccnc1`?
Methyltransferases: inactive

What do the screens show for `COc1ccc(Cl)c(Nc2nc3ccccc3nc2NS(=O)(=O)c2cccc(NC(=O)C(C)(C)N)c2)c1`?
Methyltransferases: inactive

Results for CC(C)OCCCNC(=O)C1c2c(n(C)c3ccccc23)SCC(=O)N1CCC1=CCCCC1 (stereo not drawn) ?
Methyltransferases: inactive

Results for O=C(N1CCCCC1)N1CCN(c2cc(Cl)ncn2)C(=O)C1 ?
Methyltransferases: inactive

What do the screens show for `CCCn1c(=O)c2ccc(C(=O)NC(C)C)cc2n2c(=O)n(Cc3cccc(C)c3)nc12`?
Methyltransferases: inactive

What do the screens show for `COc1ccc(OC)c(S(=O)(=O)N2CCCC(Cn3c(C)cnc3C3CC3)C2)c1` (stereo not drawn)?
Methyltransferases: inactive

Results for CC1CCC(NC(=O)C2(C)Cn3c(cc4sccc43)C(=O)N2Cc2cccs2)CC1 (stereo not drawn) ?
Methyltransferases: inactive

What do the screens show for `CCN(CCNC(=O)C1CCCCC(=O)N1C)Cc1ccccc1` (stereo not drawn)?
Methyltransferases: inactive

What do the screens show for `CC1CCC(NC(=O)C2(C)Cn3c(cc4sccc43)C(=O)N2CCc2ccc(Cl)cc2)CC1` (stereo not drawn)?
Methyltransferases: inactive

What do the screens show for `Cc1ccc(NC(=O)N2CCn3cccc3C2C)cc1` (stereo not drawn)?
Methyltransferases: inactive

Results for O=C(CCCc1nnc2n3nc(-c4ccccc4)nc3c3ccccc3n12)NC1CCN(Cc2ccccc2)CC1 ?
Methyltransferases: inactive

How did Cc1cc(C(=O)N2C[C@@H](COCC3CC3)[C@H](c3ccccn3)C2)n[nH]1 do in these assays?
Methyltransferases: inactive

What do the screens show for `CC1(C)CCC2(C(=O)OC3OC(CO)C(O)C(O)C3O)CCC3(C)C(=CCC4C5(C)CCC(O)C(C)(C(=O)O)C5CCC43C)C2C1O` (stereo not drawn)?
Methyltransferases: inactive

Results for Cc1ccc(S(=O)(=O)NCCn2c(CCc3ccccc3)nc3ccccc32)c(C)c1 ?
Methyltransferases: inactive

Results for NC(=O)NCc1cn(C2CCN(C(=O)C3CCCCCC3)CC2)nn1 ?
Methyltransferases: inactive

Results for Cc1ccc(N2C(=O)c3cc(-c4cccs4)nn3CC2(C)C(=O)NC2CCCCC2)cc1 (stereo not drawn) ?
Methyltransferases: inactive

Results for O=C(OC[C@H]1O[C@H](O[C@H]2CO[C@H](CO)[C@@H](O)[C@@H]2O)[C@H](O)[C@@H](O)[C@H]1O)c1ccccc1 ?
Methyltransferases: inactive

What do the screens show for `O=C(Cn1c(=O)oc2ccccc21)N1CCCC(Cc2noc(-c3ccccc3)n2)C1` (stereo not drawn)?
Methyltransferases: inactive

How did Cn1cc([C@@H](NC(=O)CCc2ccc(=O)[nH]n2)C2CC(O)C2)cn1 (stereo partly drawn) do in these assays?
Methyltransferases: inactive

What do the screens show for `CC(C)n1c(=O)c2ccc(C(=O)NC3CCCC3)cc2n2c(=O)n(Cc3ccccc3)nc12`?
Methyltransferases: inactive

What do the screens show for `COc1ccc(OC)c2c1cc1n2CC(C)(C(=O)NC2CCCC2)N(CCN2CCOCC2)C1=O` (stereo not drawn)?
Methyltransferases: inactive

How did C=C1CC[C@@H]2[C@](C)(CO)[C@H](O)CC[C@@]2(C)[C@@H]1C/C=C1/C(=O)OCC1O (stereo partly drawn) do in these assays?
Methyltransferases: inactive

Results for CC(=O)Nc1c2n(c3ccc(F)cc13)CC(C)(C(=O)NC1CCCCCC1)N(CCC(C)C)C2=O (stereo not drawn) ?
Methyltransferases: inactive

What do the screens show for `CCCn1c(=O)c2ccc(C(=O)NC3CCCCC3)cc2n2c(SCC(N)=O)nnc12`?
Methyltransferases: inactive

Results for COCCN1CCCCCC(O)c2cc(C(=O)NCc3ccc(F)cc3)ccc21 (stereo not drawn) ?
Methyltransferases: inactive

Results for CCCCN1C(=O)c2cc(C(=O)NCc3ccc4c(c3)OCO4)nn2CC1(C)C(=O)NC1CCCC1 (stereo not drawn) ?
Methyltransferases: inactive

Results for N#Cc1cccc(CN2CCCC2=O)c1 ?
Methyltransferases: inactive

What do the screens show for `COc1ccc(N2C(=O)c3cc4ccccc4n3CC2(C)C(=O)NCCC(C)C)c(OC)c1` (stereo not drawn)?
Methyltransferases: inactive

How did CCC(O)(C(=O)OCc1ccccc1NC(=O)CCC(=O)O)C(C)O (stereo not drawn) do in these assays?
Methyltransferases: inactive

How did CC(C)(C)c1ccc(S(=O)(=O)Nc2ccc(Cl)cc2C(=O)c2cc[n+]([O-])cc2)cc1 do in these assays?
Methyltransferases: inactive

Results for CSc1ccc(CCNC(=O)c2cc3n(n2)CC(C)(C(=O)NCc2ccc(C)cc2)N(C)C3=O)cc1 (stereo not drawn) ?
Methyltransferases: inactive

3 structures already listed, arranged by formula weight, high to low.
Results for CSc1ccc(CCNC(=O)c2cc3n(n2)CC(C)(C(=O)NCc2ccc(C)cc2)N(C)C3=O)cc1 (stereo not drawn) ?
Methyltransferases: inactive

Results for CCCCN1C(=O)c2cc(C(=O)NCc3ccc4c(c3)OCO4)nn2CC1(C)C(=O)NC1CCCC1 (stereo not drawn) ?
Methyltransferases: inactive

How did CCC(O)(C(=O)OCc1ccccc1NC(=O)CCC(=O)O)C(C)O (stereo not drawn) do in these assays?
Methyltransferases: inactive

Continuation.
Results for COc1ccc2cc3n(c2c1)CC(C)(C(=O)NCCCN1CC(C)CC(C)C1)N(C1CCCCC1)C3=O (stereo not drawn) ?
Methyltransferases: inactive

What do the screens show for `O=C(Nc1ccc(F)cc1)c1ccc2cc[nH]c2n1`?
Methyltransferases: inconclusive

What do the screens show for `CCOC(=O)c1cc2n(n1)CC(C)(C(=O)NC1CCCCCC1)N(c1ccc(F)cc1C)C2=O` (stereo not drawn)?
Methyltransferases: inactive

How did CC[C@H]1CN(C(=O)N2CCOCC2)CC[C@H]1CC(=O)NCCOC do in these assays?
Methyltransferases: inactive

How did CCOC(=O)c1cc2n(n1)CC(C)(C(=O)NCCC(C)C)N(c1cc(C)cc(C)c1)C2=O (stereo not drawn) do in these assays?
Methyltransferases: inactive

How did C=C1Cc2c(Cl)cc3[nH]c4c5c3c2[C@@]2(O)[C@@H]1C[C@@H]2C(C)(C)O[C@H]5C1CC[C@@]2(O)[C@@]35O[C@@H]3[C@H]3OC(C)(C)[C@H]3O[C@H]5CC[C@]2(C)[C@@]41C (stereo partly drawn) do in these assays?
Methyltransferases: inactive

What do the screens show for `CN(C)CCNC(=O)c1cc2n(n1)CC(C)(C(=O)NCc1ccc(F)cc1)N(C)C2=O` (stereo not drawn)?
Methyltransferases: inactive

What do the screens show for `C[C@H](C(=O)NC1CCCC1)N(C(=O)Cn1nnc(-c2ccc3c(c2)OCO3)n1)C1CCCCC1`?
Methyltransferases: inactive

How did CN1CCC(N2CC[C@H](c3nc4ccc(C(F)(F)F)cc4[nH]3)C2)CC1 do in these assays?
Methyltransferases: active

Results for Cc1cccc(CN2C(=O)c3nc4ccccc4n3CC2(C)C(=O)NCc2ccccc2)c1 (stereo not drawn) ?
Methyltransferases: inactive

How did O=C(CCc1nnc2n(CCc3ccccc3)c(=O)c3ccccc3n12)NC1CC1 do in these assays?
Methyltransferases: inactive

What do the screens show for `COc1ccc(NC(=O)CSc2nnc3n(CCCOC(C)C)c(=O)c4ccccc4n23)cc1`?
Methyltransferases: inactive

What do the screens show for `COC(=O)C1=C2Nc3ccccc3C23CCN2CCCC(C(C)O)(C1)C23` (stereo not drawn)?
Methyltransferases: active

Results for CC(=O)N1CC2(CCCN(C3CCCCC3)C2)Cc2ccccc21 (stereo not drawn) ?
Methyltransferases: inactive

Results for COc1ccc(NC(=O)N[C@H]2[C@H](O)[C@@H](Sc3ccccc3)[C@@H]3OC[C@H]2O3)cc1 ?
Methyltransferases: inactive

What do the screens show for `CCS(=O)(=O)N1CCCCCCNC(=O)[C@@H]2C[C@@H](C(=O)N3CCc4ccccc4C3)C[C@@H]21`?
Methyltransferases: inactive

How did CN1c2cccnc2CN(Cc2ccccc2Cl)CC[C@H]1CO do in these assays?
Methyltransferases: inactive

Results for Cc1csc(NC(=O)c2nc3c(o2)CCN(Cc2ccccc2F)CC3)n1 ?
Methyltransferases: inactive

What do the screens show for `O=C1NC2(CCCN(Cc3cncs3)C2)COc2ccccc21` (stereo not drawn)?
Methyltransferases: inactive

How did COC(=O)c1ccccc1O[C@@H]1O[C@H](CO)[C@@H](O)[C@H](O)[C@H]1O[C@@H]1O[C@@H](C)[C@H](O)[C@@H](O)[C@H]1O do in these assays?
Methyltransferases: inactive

Results for CCc1cnn2c(NCc3ccc[n+]([O-])c3)cc(N3CCCCC3CCO)nc12 (stereo not drawn) ?
Methyltransferases: inconclusive

How did O=C(Nc1ccc(F)cc1F)N1Cc2c(sc3c2CCCC3)-n2cccc2C1c1ccc(F)cc1 (stereo not drawn) do in these assays?
Methyltransferases: inactive

How did O=C(O)c1cc(O[C@@H]2O[C@H](CO)[C@@H](O)[C@H](O)[C@H]2O)ccc1O do in these assays?
Methyltransferases: inconclusive

What do the screens show for `CC(C)[C@@](C)(O)[C@@H]1CN(c2nc(-c3[nH]nc4ncccc34)c(F)cc2Cl)CCN1`?
Methyltransferases: active

How did CCCCNC(=O)c1nnn2cc(-c3ccc(Cl)cc3)[nH]c(=O)c12 do in these assays?
Methyltransferases: inactive

Results for CCC(C)NC(=O)c1ccc2c(=O)n(C(C)C)c3nn(CC(=O)c4cccc(OC)c4)c(=O)n3c2c1 (stereo not drawn) ?
Methyltransferases: inactive

How did CC(=O)Nc1c2n(c3ccccc13)CC(C)(C(=O)NC1CCCC1)N(C1CCC(C)CC1)C2=O (stereo not drawn) do in these assays?
Methyltransferases: inactive

What do the screens show for `CCc1cccc(NC(=O)Cn2nc3n(CCC(C)C)c(=O)c4ccc(C(=O)NC(C)C)cc4n3c2=O)c1`?
Methyltransferases: inactive

How did CCCCOc1ccccc1-c1cc2n(n1)CC(C)(C(=O)NC1CCCCCC1)N(CCOC)C2=O (stereo not drawn) do in these assays?
Methyltransferases: inactive

Results for O=C(NCc1ccc(OC(F)(F)F)cc1)C1c2c(F)cccc2C(=O)N1CCc1ccccn1 (stereo not drawn) ?
Methyltransferases: inactive

Two compounds drawn at random from the list so far:
What do the screens show for `O=C1NC2(CCCN(Cc3cncs3)C2)COc2ccccc21` (stereo not drawn)?
Methyltransferases: inactive

How did CN1c2cccnc2CN(Cc2ccccc2Cl)CC[C@H]1CO do in these assays?
Methyltransferases: inactive

Continuation:
Results for CC1(C(=O)NC2CCCC2)Cn2c(cc3ccccc32)C(=O)N1Cc1ccccn1 (stereo not drawn) ?
Methyltransferases: inactive

What do the screens show for `O=C(Cn1nc2nc(Nc3ccc(F)cc3)ccn2c1=O)Nc1cc(F)ccc1F`?
Methyltransferases: inactive

How did O=C(Cn1nc2nc(Nc3ccc(F)cc3)ccn2c1=O)Nc1ccccc1Cl do in these assays?
Methyltransferases: inactive

What do the screens show for `C[C@]12CCC[C@](C)(C(=O)O)C1CCC13C=C(CO)C(CCC12)C3` (stereo partly drawn)?
Methyltransferases: inactive

What do the screens show for `CCc1cc2c(cc3n2CC(C)(C(=O)NC2CCCCCC2)N(CCOC)C3=O)s1` (stereo not drawn)?
Methyltransferases: inactive

Entries listed so far that have a COOH group, in the order listed:
What do the screens show for `C=C1CCC[C@]2(C)CC[C@@](O)(C(=C)C(=O)O)C[C@@H]12`?
Methyltransferases: inactive

What do the screens show for `CC1(C)CCC2(C(=O)OC3OC(CO)C(O)C(O)C3O)CCC3(C)C(=CCC4C5(C)CCC(O)C(C)(C(=O)O)C5CCC43C)C2C1O` (stereo not drawn)?
Methyltransferases: inactive

How did CCC(O)(C(=O)OCc1ccccc1NC(=O)CCC(=O)O)C(C)O (stereo not drawn) do in these assays?
Methyltransferases: inactive

How did O=C(O)c1cc(O[C@@H]2O[C@H](CO)[C@@H](O)[C@H](O)[C@H]2O)ccc1O do in these assays?
Methyltransferases: inconclusive

What do the screens show for `C[C@]12CCC[C@](C)(C(=O)O)C1CCC13C=C(CO)C(CCC12)C3` (stereo partly drawn)?
Methyltransferases: inactive

Compound activity (PubChem BioAssay)
